# Screening data deposited in PubChem BioAssay by Johns Hopkins Ion Channel Center.
# KCNQ2 pot – potentiators of rat KCNQ2 potassium channel | O88943 | CHO-K1 KCNQ2, FluxOR thallium flux fluorescence; active compounds read high | B-score at 10 µM | 310,000 tested, 0.54% active | AID 2239;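 active means fluorescence ratio B-score at least 3 SD of library B-scores, with initial fluorescence B-score within 3 SD, cut at about 5.3 in these data; same plate scores as AID 2156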;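 further: B-score of peak minus minimum over baseline fluorescence ratio after K+ and Tl+ stimulus; positive B-score means potentiation of KCNQ2 with more thallium influx and brighter signal; only the inactives scoring about 0 or higher are listed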
# Target sequence (O88943 whole entry, looked up): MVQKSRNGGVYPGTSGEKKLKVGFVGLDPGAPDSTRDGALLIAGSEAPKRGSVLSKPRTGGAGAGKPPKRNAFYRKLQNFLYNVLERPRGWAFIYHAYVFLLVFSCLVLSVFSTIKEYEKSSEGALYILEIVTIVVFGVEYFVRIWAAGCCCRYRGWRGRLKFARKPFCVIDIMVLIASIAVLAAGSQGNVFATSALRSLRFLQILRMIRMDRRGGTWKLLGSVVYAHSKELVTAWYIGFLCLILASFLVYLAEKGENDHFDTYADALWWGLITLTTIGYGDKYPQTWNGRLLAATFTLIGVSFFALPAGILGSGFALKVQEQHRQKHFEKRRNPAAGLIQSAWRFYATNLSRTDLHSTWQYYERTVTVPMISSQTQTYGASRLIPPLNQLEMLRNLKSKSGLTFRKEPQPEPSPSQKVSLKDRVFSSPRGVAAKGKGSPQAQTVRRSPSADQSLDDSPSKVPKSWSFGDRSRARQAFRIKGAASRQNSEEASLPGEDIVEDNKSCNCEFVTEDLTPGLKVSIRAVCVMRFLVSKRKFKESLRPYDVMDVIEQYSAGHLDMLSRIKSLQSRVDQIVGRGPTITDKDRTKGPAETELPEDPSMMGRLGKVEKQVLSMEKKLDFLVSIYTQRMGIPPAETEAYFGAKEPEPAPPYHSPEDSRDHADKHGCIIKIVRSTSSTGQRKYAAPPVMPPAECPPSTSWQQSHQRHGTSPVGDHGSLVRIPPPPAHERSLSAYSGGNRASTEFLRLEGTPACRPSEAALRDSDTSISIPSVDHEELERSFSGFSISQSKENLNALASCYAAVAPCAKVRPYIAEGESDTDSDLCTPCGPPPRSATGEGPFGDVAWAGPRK
# KCNQ2 pot baseline – further read-out of KCNQ2 pot, marked with its call; B-score; compound at 10 µM; measured here: initial fluorescence intensity artifact check;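 brightness before thallium and not channel activity; 0 = typical well and far values either way flag optical interference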
# The depositor's hits bear a star. The list is partial; the hit share may differ from the screen's.
SMILES,KCNQ2 pot,KCNQ2 pot baseline
O=C(Nc1cccnc1)c1ccc(Cl)c(S(=O)(=O)N2CCOCC2)c1,1.65,1.74
c1ccc(NNC2=NCCCCC2)cc1,1.95,-0.91
CCNS(=O)(=O)c1cc(OC)ccc1OC,1.42,-0.16
COc1cccc(CC2(CO)CCCN(Cc3cnn(-c4ccccc4)c3)C2)c1 (centres undefined),0.67,0.08
COCCN(C(=O)CN1CCCc2ccccc21)c1c(N)n(Cc2ccccc2)c(=O)[nH]c1=O,0.53,3.51
COCCNCCCCOc1ccccc1-c1ccccc1,0.85,-0.72
COc1cc2ccccc2cc1C(=O)N1CCCCC1,0.26,-0.69
CC1=CC(C)(C)N(C(=O)CSc2nnc(N)s2)c2cc(C)c(C)cc21,1.01,0.05
O=C(O)/C=C/c1cccc(NC(=O)Nc2ccc([N+](=O)[O-])cc2)c1,0.59,1.36
COc1ccccc1N=CC1=C(O)CC(c2ccccc2)CC1=O (centres undefined),1.04,-0.23
COc1cc(C=Nc2c(C)cc(C)cc2C)ccc1OC(C)=O,1.51,-1.15
COc1nc(Nc2cccc(F)c2)nc(OC)n1,0.5,-0.6
CCCCOc1ccc(OCCSc2nc3ccccc3n2CC(=O)O)cc1,0.32,-1.67
O=C(NCCCN1CCOCC1)C(=O)N/N=C/c1cccc2ccccc12,0.09,-0.12
O=C(Nc1cc(C(F)(F)F)ccc1N1CCOCC1)c1ccccc1,0.16,-0.01
CN(C)CCCNc1ccc(-c2nn(C)c(=O)c3ccccc23)cc1[N+](=O)[O-],3.98,-2.02
CCOc1ccccc1/C=N/NC(=O)c1ccc(Cn2cc([N+](=O)[O-])cn2)o1,0.57,-0.94
CC(C)(C)c1ccc(OCC(=O)Nc2ccc(-c3nc4cccnc4o3)cc2)cc1,0.07,-0.2
O=C(NC(=S)N1CCc2ccccc21)c1ccccc1Cl,8.86*,-0.97*
c1ccc2sc(Nc3nc4cc5c(cc4s3)OCO5)nc2c1,3.58,-0.43
COc1ccc(S(=O)(=O)N2CC(C)N(C(=O)N(C)C)C2C(C)C)cc1 (centres undefined),1.18,0.72
Cc1ccc(CN2CCN(Cc3ccc4c(c3)OCCO4)CC2CCO)cc1 (centres undefined),0.29,0.29
O=C(/C=C/c1ccccc1)C1C(=O)c2ccccc2C1=O,5.77*,-0.09*
N#CC1(NC(=O)COC(=O)/C=C/c2ccc3ccccc3n2)CCCCC1,0.03,-0.55
CSc1nc2ccccc2c(=O)n1Cc1ccc(F)cc1,0.21,2.23
Cc1cc(C(=O)N/N=C/C=C/c2ccc([N+](=O)[O-])cc2)n[nH]1,0.33,0.53
CC(C)CCNC(=S)Nc1ccc(Br)cc1,5.32*,0.25*
CC(=O)SC(C)CC(=O)NCc1ccccc1 (centres undefined),0.49,1.66
CCCc1cc(C(=O)N2CCCN(C)CC2)cs1,1.61,0.01
COc1ccccc1NC(=O)Cn1nnc(-c2ccccc2NC(=O)c2cc3ccccc3oc2=O)n1,0.86,0.22
COc1ccccc1CNC(=O)CN(C)S(=O)(=O)c1ccc2c(c1)n(C)c(=O)c(=O)n2C,0.04,-0.03
COc1ccc(CC(=O)NCC(C)(C)N2CCOCC2)cc1,1.37,0.35
Cc1cc(C)c2c(c1)/C(=N/NS(=O)(=O)c1ccccc1)CCC2,0.57,-0.91
Cc1cc(S(=O)(=O)NC(C)C)ccc1OCC(=O)N1CCOCC1,0.57,0.76
COCCN(C(=O)COC(=O)/C=C/c1nc2ccccc2s1)c1c(N)n(Cc2ccccc2)c(=O)[nH]c1=O,0.33,-0.09
CC(=O)Nc1cccc(C(=O)Nc2cccc3ncccc23)c1,0.33,-0.44
CCOC(=O)Nc1sc(C)c(C)c1C(N)=O,0.26,-0.32
CCCOc1ccc(-c2c(C(=O)N/N=C/c3cccs3)nnn2-c2nonc2N)cc1,2.21,-0.04
CCc1ccc(NC(=O)Cn2cnc([N+](=O)[O-])c2)cc1,0.35,-2.19
CCCCc1nnc(NC(=O)CSc2nc(O)c(Cc3ccccc3)c(=O)[nH]2)s1,1.89,-1.63
CCN(C(=O)COC(=O)c1ccc(COc2ccc3c(C)cc(=O)oc3c2)cc1)C1CCS(=O)(=O)C1 (centres undefined),0.97,0.73
COc1ccc(N(CC(=O)NC2CCCC2)C(=O)CCC(=O)Nc2nc(C)cs2)cc1OC,2.76,-2.24
Cc1cnc(C(=O)Nc2cccc(-c3nnc4n3CCCCC4)c2)cn1,0.79,-1.31
COc1ccc(C(=O)Nc2ccc(C3(C#N)CCCC3)cc2)cc1,0.45,0.89
C=CCOc1cccc(CNCCCN2CCOCC2)c1,1.3,-1.68

# Reformatted with bars between the fields: 15 of the compounds above.
SMILES | KCNQ2 pot | KCNQ2 pot baseline
COc1ccccc1NC(=O)Cn1nnc(-c2ccccc2NC(=O)c2cc3ccccc3oc2=O)n1 | 0.86 | 0.22
COc1ccccc1CNC(=O)CN(C)S(=O)(=O)c1ccc2c(c1)n(C)c(=O)c(=O)n2C | 0.04 | -0.03
COc1ccc(CC(=O)NCC(C)(C)N2CCOCC2)cc1 | 1.37 | 0.35
Cc1cc(C)c2c(c1)/C(=N/NS(=O)(=O)c1ccccc1)CCC2 | 0.57 | -0.91
Cc1cc(S(=O)(=O)NC(C)C)ccc1OCC(=O)N1CCOCC1 | 0.57 | 0.76
COCCN(C(=O)COC(=O)/C=C/c1nc2ccccc2s1)c1c(N)n(Cc2ccccc2)c(=O)[nH]c1=O | 0.33 | -0.09
CC(=O)Nc1cccc(C(=O)Nc2cccc3ncccc23)c1 | 0.33 | -0.44
CCOC(=O)Nc1sc(C)c(C)c1C(N)=O | 0.26 | -0.32
CCCOc1ccc(-c2c(C(=O)N/N=C/c3cccs3)nnn2-c2nonc2N)cc1 | 2.21 | -0.04
CCc1ccc(NC(=O)Cn2cnc([N+](=O)[O-])c2)cc1 | 0.35 | -2.19
CCCCc1nnc(NC(=O)CSc2nc(O)c(Cc3ccccc3)c(=O)[nH]2)s1 | 1.89 | -1.63
CCN(C(=O)COC(=O)c1ccc(COc2ccc3c(C)cc(=O)oc3c2)cc1)C1CCS(=O)(=O)C1 (centres undefined) | 0.97 | 0.73
COc1ccc(N(CC(=O)NC2CCCC2)C(=O)CCC(=O)Nc2nc(C)cs2)cc1OC | 2.76 | -2.24
Cc1cnc(C(=O)Nc2cccc(-c3nnc4n3CCCCC4)c2)cn1 | 0.79 | -1.31
COc1ccc(C(=O)Nc2ccc(C3(C#N)CCCC3)cc2)cc1 | 0.45 | 0.89

# The listing continues.
SMILES,KCNQ2 pot,KCNQ2 pot baseline
CC1CCCCN1c1nnc(NC(=O)Cn2c(=O)oc3ccccc32)s1 (centres undefined),1.4,0.64
O=c1cc(N2CCCCC2)c(-c2ccccc2)n[nH]1,0.19,-2.2
COc1cccc(/C(C)=N/NS(=O)(=O)c2ccc(Cl)cc2)c1,1.03,-0.3
COc1cccc(C(=O)Nc2ccc(NC(=O)C3CC=CCC3C(=O)O)cc2)c1 (centres undefined),0.05,-0.94
CC(C)c1ccc(S(=O)(=O)c2cnc(=S)[nH]c2N)cc1,0.62,-0.3
Cc1ccc(/C(N)=N/OC(=O)COc2ccccc2Cl)cc1,0.33,-0.99
CC(=O)Nc1ccc(/C(C)=N/NS(=O)(=O)c2ccccc2)cc1,1.12,-0.64
CN(C(=O)c1ccccc1OC1CCN(S(C)(=O)=O)CC1)C1CCOC1 (centres undefined),0.07,0.27
CCn1cc(C(=O)Nc2cccc(C(=O)OC)c2)c(=O)c2ccc(C)nc21,2.03,-1.64
NC(=O)C1CCN(C(=O)C2CCC(=O)N(CC3CCCCC3)C2)CC1 (centres undefined),0.83,1.39
CC(C)CNC(=O)c1ccc(NC(=O)c2cccs2)cc1,0.01,1.67
Cn1c(NC(=O)c2ccccc2)c(-c2ccccn2)c(=O)c2ccccc21,0.03,0
COc1ccccc1N1CCN(CCCNc2c(C)c(=O)n(C)c(=O)n2C)CC1,1.89,-0.64
Cc1ccc(S(=O)(=O)N2CCCCC2)cc1NC(=O)COC(=O)Cc1cccc(C(F)(F)F)c1,1.64,-0.02
COc1ccc(C2C(C(C)=O)=C(O)C(=O)N2c2ccc(C)cc2)cc1 (centres undefined),0.23,0.5
COc1ccc(NC(=O)CN2CC(c3ccccc3)CC2=O)cc1OC (centres undefined),0.08,-0.05
NC(=O)c1c(NC(=O)C(=O)N2CCOCC2)sc2c1CCCC2,1.35,0.14
Cc1cc(C(C)(C)C)ccc1OCCOCCN1CCCC1,2.44,1.28
COc1cc(C)nc(N2CCCC(C(=O)Nc3cc(Cl)ccc3OC)C2)n1 (centres undefined),0.61,0.41
COc1ccc(NC(=O)CSc2c(C)nn(-c3nnc(C)c(=O)[nH]3)c2C)cc1,0.43,-0.79
O=C(CS(=O)(=O)c1ccccc1)Nc1nnc(C(F)(F)F)s1,0.44,-0.11
Cc1nn(Cc2ccc(Cl)cc2Cl)c(Cl)c1/C=N/NC(=O)CNc1cccc(C(F)(F)F)c1,1.32,-0.21
CC(C)NC(=O)c1onc(CSc2ccncc2)c1C(=O)NC(C)C,0.35,1.17
O=C(N/C(=C/c1ccco1)C(=O)N1CCCCCC1)c1cccs1,1.42,-0.78
CCOc1cc(C(C(=O)NCC2CCCO2)N(C(=O)Cn2nnc3ccccc32)c2ccc(OC)c(OC)c2)ccc1O (centres undefined),0.02,0.01
CCc1nc(SCc2ccccn2)[nH]c(=O)c1C,1.1,1.64
O=C(NCC1CCN(Cc2ccccc2Cl)CC1)Nc1ccccc1F,0.13,-1.1
CN(C)S(=O)(=O)c1ccc(S(=O)(=O)NC2CCOC(C)(C)C2)cc1 (centres undefined),0.32,-1.38
Nc1ccc(Oc2ccc3nc(-c4ccccc4)c(-c4ccc([N+](=O)[O-])cc4)nc3c2)cc1,1.36,-1.4
CC(SCC(=O)Nc1ccccc1)c1nc2ccccc2c(=O)[nH]1 (centres undefined),0.1,-0.07
CCOc1ccc(C(=O)C(c2ccccc2)N2CCOCC2)cc1 (centres undefined),0.29,0.57
O=C(NC1CCS(=O)(=O)C1)c1cccc(S(=O)(=O)N2CCOCC2)c1 (centres undefined),0.52,-1.84
Nc1ccc(Br)cc1C(NCC(=O)O)c1ccccc1 (centres undefined),2.91,-1.31
Cc1nc2nc(C)c(NS(=O)(=O)c3ccc(Cl)s3)c(=O)n2[nH]1,0.41,0.86
COc1ccc(S(=O)(=O)NCCCN2CCOCC2)cc1F,1.12,0.45
O=C(COC(=O)C1CCC(=O)N1)Nc1ccc(Oc2ccccc2)cc1 (centres undefined),7.61*,1.32*
CC(C)=C(C#N)c1nc2ccccc2s1,1.62,-0.45
Cc1nc2nc(-c3ccco3)nn2c(C)c1Cl,1.43,-0.65
Cc1ccccc1CN1C2=NCCCN2c2ccccc21,0.05,-0.03
CC(CCc1ccccc1)NC(=O)CSc1nc(N)cc(N)n1 (centres undefined),0.37,-0.03
N#Cc1cccc(NC(=O)CCC2CCCC2)c1,2.55,0
COc1cc(CN2CCC(n3nccc3NC(=O)CCCc3ccccc3)CC2)ccc1O,0.59,1.69
CN1C(=O)c2ccc(NC(=O)c3cccc(N4C(=O)CCC4=O)c3)cc2C1=O,0.01,-0.39
CCOCCCNC(=S)NCCc1ccccc1,1.07,-0.04
COc1cccc(/C=N/Nc2cc(N3CCOCC3)ncn2)c1O,0.46,0.8
COC(=O)c1cccnc1N1CCN(c2ccccc2F)CC1,0.01,-0.01
Cn1nc(C(=O)N2CCC(C(N)=O)CC2)c2c1-c1ccccc1SC2,1.31,-1.72
CCC1CCCCN1CCCNC(=O)CC1Oc2ccccc2NC1=O (centres undefined),0.31,2.17
Cc1cc(OC(C)C(=O)NCC2CCC(C(=O)O)CC2)c2c(C)c(Cc3ccccc3)c(=O)oc2c1 (centres undefined),0.01,1.52
C#CCNC(=O)C1=C[C@@H](C)[C@H](CCCO)[C@@H](OCC)O1,1.36,-1.27
CCCCOc1nc(N)nc(-c2ccccc2)n1,0.39,1.58
CN(Cc1ccon1)C(=O)C1CCN(C2CCN(CCCc3ccccc3)CC2)CC1,0.25,0.05
CN(Cc1ccccc1OCCO)CC1CCCN(CCc2ccc(Cl)cc2)C1 (centres undefined),0.62,-0.02
COc1ccc(CC(=O)Nc2nncs2)cc1OC,0.11,-0.27
CCc1c(C)nc(SCC(=O)N2CCCCC2)[nH]c1=O,0.05,0
O=C(c1cc2ccccc2o1)c1cccs1,0.75,-1.8
COCCN(C(=O)CSc1nn(-c2ccc(F)cc2)c(=S)s1)c1c(N)n(CC(C)C)c(=O)[nH]c1=O,0.61,-1.21
COc1cc(CCC(=O)OCc2nnc(-c3ccccc3)o2)cc(OC)c1OC,1.49,-0.34
O=C(NC1CCCCCC1)C1CCCN1S(=O)(=O)c1cccc2cccnc12 (centres undefined),0.97,-1.35
Nc1cc(=O)[nH]c(SCc2csc(-c3ccccc3)n2)n1,1.39,0.57

# More compounds follow.
SMILES,KCNQ2 pot,KCNQ2 pot baseline
COc1ccccc1NC(=O)C1CCN(S(=O)(=O)c2cccc3nonc23)CC1,0.02,0.36
Cc1ccc(-c2cccc(C3CC=CC4C3C(=O)N(Cc3ccccc3)C4c3ccc4ccccc4c3)c2)cc1 (centres undefined),3.44,-1.06
COC(=O)CN1C(=O)C2(C(C#N)=C(N)Oc3c2c(C)nn3-c2ccccc2)c2ccccc21 (centres undefined),0.33,0.34
C/C(=N/NC(=O)c1sc(NS(=O)(=O)c2ccccc2)nc1C)c1sc(N)nc1C,0.24,0.99
COc1ccc(NS(=O)(=O)c2ccc(N3CCOCC3)c(NC(=O)c3ccco3)c2)cc1,1.32,0.18
Cc1cc(NC(=O)C23CC4CC(CC(C4)C2)C3)n[nH]1,1.32,-1
Cc1cccc(N2CC34C=CC(O3)C(C(=O)O)C4C2=O)c1 (centres undefined),0.75,1.02
Nn1c(SCC(=O)Nc2ccc(F)cc2F)nnc1C1CCCCC1,0.45,0.08
CCOCCn1cnc2sc(C(=O)NCC(=O)OCC)c(C)c2c1=O,0.22,-0.93
O=C(O)Cn1nc(C(F)(F)F)c2c1CCC2,1.55,-0.08
CCO/N=C(\C)c1c(O)c2ccccc2n(C)c1=O,0.21,1.46
CCOc1ccc(-c2cnc(SCC(N)=O)nc2N)cc1,0.49,0.67
Cc1ccccc1C(=O)NNC(=O)c1cccc(Br)c1,0.2,-1.72
